Six1-Eya2 blk: inhibitors of human Six1/Eya2 interaction; AID 651725; Q15475+O00167; activity change, % (concentration not given with the values); 360,000 tested, 0.56% active; AlphaScreen GST-Six1/His-Eya2 binding, biochemical; stronger effect = lower value; control for the full effect not named in the record; in the data active = activity change below about -65%; inconclusive = about -30% to -65%; inactive = above about -30%; further: on the % scale 0 is the no-effect control and ±100 the full control effect
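AlphaScreen luminescence read after one hour at 37 °C in darkness. Pin-transferred compounds met GST-Six1 and His-Eya2 protein (5X stock 250 nM/500 nM) plus glutathione donor and Ni-chelate acceptor beads (5X, 50 ug/mL).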
gsp antag: antagonizes gsp, the McCune-Albright syndrome mutation; Potency, µM (doses to about 76.9 µM), without a hit: top-dose activity change, negative = inhibition, most hits filed as inhibitors; AID 624288; gsp-mutant cells, cAMP HTRF, 30 min; control for the full effect not named in the record; 340,000 tested, 0.4% active; active = falling curve of any shape with a large fitted effect; inconclusive = falling curve, mostly with a smaller effect; inactive = flat or rising curve; cell line not stated here;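 further: intracellular cAMP measured with PDE inhibitor Ro 20-1724 present during compound exposure; potency means the concentration at half of the fitted maximal effect; on the % scale 0 is the no-effect control and ±100 the full control effect; nearly all actives have a fitted effect of over 65% in size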
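Cells in G418 medium, seeded 16-24 h, 37C; buffer exchange to DPBS + 1 mM CaCl2, 0.5 mM MgCl2, 0.05% BSA; cpds in DMSO + […] (300 uM stock), 30 min 37C; HTRF cAMP detection.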
D2 ag: activates the human D2 dopamine receptor | P14416 | DiscoveRx PathHunter D2 beta-arrestin, luminescence, 90 min; 100% = 57 uM dopamine signal | activation, % (concentration not given with the values) | 360,000 tested, 0.084% active | AID 624465; in the data active = activation above about 40%; inconclusive = about 15% to 40%; inactive = below about 15%; further: compound concentration not given in the record; the text of the record calls up to 30% inactive
Target sequence (P14416 whole entry, looked up): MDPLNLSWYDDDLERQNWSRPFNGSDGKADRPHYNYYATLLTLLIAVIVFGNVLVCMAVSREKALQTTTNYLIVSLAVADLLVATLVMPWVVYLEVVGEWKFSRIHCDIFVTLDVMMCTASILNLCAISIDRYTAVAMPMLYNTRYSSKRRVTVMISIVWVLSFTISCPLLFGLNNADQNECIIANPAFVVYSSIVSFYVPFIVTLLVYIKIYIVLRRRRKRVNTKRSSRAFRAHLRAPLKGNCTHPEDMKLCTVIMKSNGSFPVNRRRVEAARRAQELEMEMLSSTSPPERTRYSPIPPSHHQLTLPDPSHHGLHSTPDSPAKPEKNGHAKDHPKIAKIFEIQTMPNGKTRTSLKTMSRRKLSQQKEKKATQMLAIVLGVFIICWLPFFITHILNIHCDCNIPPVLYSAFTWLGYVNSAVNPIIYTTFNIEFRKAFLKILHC
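DiscoveRx PathHunter D2 beta-arrestin cells (2,100/well) attached overnight, then compound-stimulated 90 min at 37 C in HBSS/10 mM HEPES/0.1% Tween-20 buffer; beta-galactosidase complementation read by luminescence after 1 h at ambient temperature. Dopamine 57 uM final (EC100) as control.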
gsp agonist: gsp mutant agonism. gsp mutant cells, cAMP HTRF, 30 min; control for the full effect not named in the record. Potency, µM (top dose mostly 76.9 µM), inactives show top-dose activation (cAMP increase), most hits filed as activators. 340,000 tested, 0.13% active; active = well fitted activation curve with a large enough effect; inconclusive = small, poorly fitted or top-dose-only effect, or another doubt; inactive = no such curve, though single readings can be large or run the other way; cell line not stated here;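 further: phosphodiesterase inhibitor Ro 20-1724 added with compounds to block cAMP breakdown; potency means the concentration at half of the fitted maximal effect; nearly all actives have a fitted effect of over 60% in size; about a fifth of the inactives were tested at one dose only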
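Cells stably selected in G418 were plated at 2000/well, grown 16-24 hr, then given compounds in DMSO with the PDE inhibitor […] (300 uM solution added) for 30 min at 37C; cAMP was read by HTRF.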
D2 potentiator: positive allosteric modulators of human D2 dopamine receptor. DiscoveRx D2 beta-arrestin cells, luminescence, 90 min; 100% = 57 uM dopamine signal. 360,000 tested, 0.23% active. potentiation, % (test concentration not listed). AID 624464; active = potentiation of 50% or more; inconclusive = 30% to 50%; inactive = 30% or less;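 further: compound concentration not given in the record; tested on top of an EC20 dose of dopamine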
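D2 cells co-treated with compound plus 50 nM dopamine (EC20) for 90 min at 37 deg C to detect potentiation. Beta-arrestin recruitment was read as enzyme-fragment luminescence after 1 h at ambient temperature. Full response was set by 57 uM dopamine.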
CtBP-E1A inh: blocks the CtBP interaction with E1A; AlphaScreen GST-E1A/His-CtBP binding, 1536-well; stronger effect = lower value; control for the full effect not named in the record; activity change, % (concentration not given with the values); 340,000 tested, 0.49% active; AID 651724; in the data active means activity change below about -65%; inconclusive means about -30% to -65%; inactive means above about -30%; further: on the % scale 0 is the no-effect control and ±100 the full control effect
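AlphaScreen with 125 nM GST-E1A and 125 nM His-CtBP (5X stocks) in Tris pH 8.0, 300 mM NaCl, BSA, Tween 20, TCEP. Compounds preincubated 2 h at 37 deg C, then glutathione donor/nickel acceptor beads added for 1 h at 37 deg C in dark.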
The depositor's hits bear a star; [ ] = dose if it differs, or a comment.

CC(=O)O[C@H]1CC(C)(C)C(=C=C/C(C)=C/C=C/C(C)=C/C=C/C=C(C)/C=C/C=C(\C)C(=O)C[C@@]23O[C@]2(C)C[C@@H](O)CC3(C)C)[C@](C)(O)C1 was read as Six1-Eya2 blk 2, gsp antag -12%, D2 ag -2.6, D2 potentiator -7 and CtBP-E1A inh -1.
For CC1(C(=O)NS(=O)(=O)c2ccccc2C(F)(F)F)CCN1C(=O)CC1CCCCC1 (configuration not stated) the results were Six1-Eya2 blk 9, D2 ag 3.8, D2 potentiator -3 and CtBP-E1A inh 9.
CC(C)(C)OC(=O)C[C@@H]1C/C=C\C[C@@H](CC(=O)NCCO)C(=O)NC[C@H](c2ccccc2)OC1=O was read as Six1-Eya2 blk 5, gsp antag 0%, D2 ag 12, gsp agonist -4%, D2 potentiator 10 and CtBP-E1A inh 3.
Screening COC(=O)c1cc(S(=O)(=O)N2CCCCCC2)cn1C returned Six1-Eya2 blk -3, gsp antag 9%, D2 ag -5.1, gsp agonist 1% and D2 potentiator -3.
`CC(NC(=O)/C=C/c1ccco1)c1nc2ccccc2n1Cc1cccc(Cl)c1` (configuration not stated) gave Six1-Eya2 blk -10, gsp antag 3%, D2 ag -1.4, gsp agonist -2%, D2 potentiator -13 and CtBP-E1A inh 2.
For Cc1ccc(S(=O)(=O)N2C[C@H]3C(=O)C[C@@H](c4ccccc4)N(S(=O)(=O)c4ccc(C)cc4)[C@H]3C[C@H]2c2ccccc2Cl)cc1 the results were Six1-Eya2 blk -6, D2 ag -1.3, D2 potentiator 5 and CtBP-E1A inh -1.
`Cc1cc(F)ccc1NC(=O)c1cccnc1` gave Six1-Eya2 blk -2, gsp antag -2%, D2 ag 1.6, gsp agonist -31%, D2 potentiator -7 and CtBP-E1A inh 0.
For CC(=O)c1ccccc1C(=O)N1CCCC(CCC(=O)N2CCN(c3ccccn3)CC2)C1 (configuration not stated) the results were Six1-Eya2 blk 0, gsp antag -7%, D2 ag -5.5, gsp agonist -2%[15.4 µM], D2 potentiator 0 and CtBP-E1A inh 5.
Screening CCOC(=O)c1oc2ccccc2c1NC(=O)c1ccco1 returned Six1-Eya2 blk -15, gsp antag 0%, D2 ag -1.1, gsp agonist 13%, D2 potentiator -4 and CtBP-E1A inh -4.
`CCOC(=O)c1c(C)[nH]c(C)c1C(=O)COC(=O)c1cc2ccccc2cc1O` gave Six1-Eya2 blk -17, gsp antag -6%, D2 ag -0.1, gsp agonist 10%, D2 potentiator -3 and CtBP-E1A inh -1.
Cc1cccc(N2CCN(C(=O)C3CCN(S(=O)(=O)c4c(C)noc4C)CC3)CC2C)c1 (configuration not stated) was read as Six1-Eya2 blk 5, gsp antag -32%, D2 ag 3.7, gsp agonist -2%[15.4 µM] and D2 potentiator 5.
Screening Cc1cccc(NC(=S)NC2CC3CCCC(C2)N3Cc2cccs2)c1C (configuration not stated) returned Six1-Eya2 blk -19, gsp antag 5%, D2 ag -1.2, gsp agonist 14%, D2 potentiator -24 and CtBP-E1A inh -13.
Screening Cc1ccccc1-c1nnc(SCC#N)o1 returned Six1-Eya2 blk 9, gsp antag 17%, D2 ag -4.5, gsp agonist -10%[15.4 µM], D2 potentiator -4 and CtBP-E1A inh -3.
Screening Cc1ccc(C(=O)Oc2ccc3c(c2)ncn3C)cc1 returned Six1-Eya2 blk 0, gsp antag -8%, D2 ag -1.2, gsp agonist -39%[inhibitor], D2 potentiator 7 and CtBP-E1A inh 7.
For CC(=O)Nc1c2c(nn1-c1ccc(C)cc1C)CSC2 the results were Six1-Eya2 blk 2, gsp antag -6%, D2 ag 1.5, gsp agonist -19%, D2 potentiator 5 and CtBP-E1A inh 0.
`CC(C)c1nnc(NC(=O)CS(=O)(=O)c2ccccc2)s1` gave Six1-Eya2 blk 3, gsp antag -1%, D2 ag 1.0, gsp agonist 20%, D2 potentiator 2 and CtBP-E1A inh 0.
`CCOC(=O)c1ccc(N2N=C(C)/C(=C/C=C/c3ccco3)C2=O)cc1` gave Six1-Eya2 blk -1, gsp antag -10%, D2 ag 0.2, gsp agonist -14%, D2 potentiator 10 and CtBP-E1A inh 5.
Screening CSc1ccccc1NC(=O)CN(C)CC(=O)Nc1ccc(Cl)cc1[N+](=O)[O-] returned Six1-Eya2 blk -10, gsp antag -7%, D2 ag 5.2, gsp agonist -11%[15.4 µM], D2 potentiator 24 and CtBP-E1A inh -2.
Cc1ccc(NC(=O)Cc2nc(COC(=O)C(C)NS(=O)(=O)c3ccc(C)cc3)cs2)cc1 (configuration not stated) was read as Six1-Eya2 blk -4, gsp antag -1%, D2 ag 0.3, gsp agonist -44%[inhibitor], D2 potentiator -2 and CtBP-E1A inh -1.
For N/C(=N\OC(=O)C1CCCCC1)c1cccnc1 the results were Six1-Eya2 blk 5, gsp antag 2%, D2 ag 3.1, gsp agonist 23%, D2 potentiator 23 and CtBP-E1A inh 2.
Cc1ccccc1N=C1Nc2ccccc2N[C@]12C[C@H]1CCC(=O)N3CC[C@@H](C2)[C@@H]13 was read as Six1-Eya2 blk 1, gsp antag 6%, D2 ag 0.8, D2 potentiator -4 and CtBP-E1A inh 1.
Cc1ccc(NC(=O)C2CCN(S(=O)(=O)c3ccc4c(c3)NC(=O)C(C)S4)CC2)c(C)c1 (configuration not stated) was read as Six1-Eya2 blk -7, gsp antag -14%, D2 ag -2.3, gsp agonist -2%, D2 potentiator -16 and CtBP-E1A inh -7.
For COc1cc(SC)ccc1C(=O)Nc1ccc2c(c1)OCCO2 the results were Six1-Eya2 blk -4, gsp antag inconclusive, D2 ag 1.9, gsp agonist -30%, D2 potentiator 2 and CtBP-E1A inh -5.
`COC(C[C@@H](O)CC(=O)[C@@H](C)OCc1ccccc1)OC` gave Six1-Eya2 blk 2, gsp antag 5%, D2 ag -3.3, D2 potentiator -3 and CtBP-E1A inh 3.
Screening CCNC(=O)C1(C)CCCN(Cc2cccc3c2OCCO3)C1 (configuration not stated) returned Six1-Eya2 blk 4, D2 ag -3.5, D2 potentiator -9 and CtBP-E1A inh -13.
CN(C)c1nc(Oc2ccc(OCCOc3ccccc3)nn2)nc(N(C)C)n1 was read as Six1-Eya2 blk -2, gsp antag 7%, D2 ag 1.3, gsp agonist 27%, D2 potentiator -11 and CtBP-E1A inh -12.
Screening COc1ccccc1C(CNC(=O)COc1ccccc1C)N1CCCC1 (configuration not stated) returned Six1-Eya2 blk 0, gsp antag 11%, D2 ag -6.2, gsp agonist -52%, D2 potentiator -26 and CtBP-E1A inh -21.
For CC(=O)Nc1ccc(S(=O)(=O)N2CCN3CCCC3C2)cc1 (configuration not stated) the results were Six1-Eya2 blk -2, gsp antag 8%, D2 ag 3.4, gsp agonist -1% and D2 potentiator -2.
For Cc1ccc(C)c(OCCn2ccnc2)c1 the results were Six1-Eya2 blk -6, gsp antag -15%, D2 ag -3.8, gsp agonist 4%, D2 potentiator -3 and CtBP-E1A inh -3.
Screening COc1ccc(CSCC(=O)N/N=C/c2ccccc2OCc2ccccc2)cc1 returned Six1-Eya2 blk -1, gsp antag -4%, D2 ag -1.4, gsp agonist -4%, D2 potentiator 7 and CtBP-E1A inh 12.
OCC(CO)(CO)NCc1ccc(-c2ccccc2)cc1 was read as Six1-Eya2 blk -2, gsp antag 12%, D2 ag -4.7, gsp agonist -1%[15.4 µM], D2 potentiator -11 and CtBP-E1A inh 7.
Screening CC(C)(C)c1ccc(OCc2cnc(Cl)s2)cc1 returned Six1-Eya2 blk 66, D2 ag 1.0, gsp agonist -3%[15.4 µM], D2 potentiator -26 and CtBP-E1A inh -14.
Screening Cc1ccc(NC(=O)[C@H](NC(=O)[C@@H]2Cc3ccccc3CN2)c2ccccc2)cc1C returned Six1-Eya2 blk -6, gsp antag 2%, D2 ag 1.1, gsp agonist -4% and D2 potentiator -21.
Screening O=C(Nc1ccccn1)c1ccc(S(=O)(=O)N2CCCCCC2)cc1 returned Six1-Eya2 blk 3, gsp antag 2%, D2 ag 4.2, gsp agonist -1%, D2 potentiator 9 and CtBP-E1A inh -15.
Screening COc1cccc(C2N(c3ccc(Cl)c(Cl)c3)C(=O)C3CCCN32)c1OC (configuration not stated) returned Six1-Eya2 blk 2, gsp antag -8%, D2 ag -2.1, gsp agonist -37%[inhibitor], D2 potentiator -2 and CtBP-E1A inh -4.
For O=c1[nH]c(=O)n([C@H]2C[C@H](O)[C@@H](CO)O2)cc1Br the results were Six1-Eya2 blk 2, gsp antag 1%, D2 ag -2.7, D2 potentiator 2 and CtBP-E1A inh 2.
`O=C(C1CC1)N1CCN(C(c2ccccc2)c2ccccc2)CC1` gave Six1-Eya2 blk 0, gsp antag -7%, D2 ag 1.6, gsp agonist -3%, D2 potentiator -5 and CtBP-E1A inh 1.
CCC(=O)N1C(C(=O)N2CCCC2)CSC1c1ccc(OC)cc1 (configuration not stated) was read as Six1-Eya2 blk 7, gsp antag 7%, D2 ag -3.1, gsp agonist -17%, D2 potentiator -10 and CtBP-E1A inh 4.
Screening Nc1cc(=O)[nH]c(SCC(=O)Nc2ccc(Oc3ccccc3)cc2)n1 returned Six1-Eya2 blk -6, gsp antag 12%, D2 ag -2.3, gsp agonist inconclusive, D2 potentiator -3 and CtBP-E1A inh -3.
`Cc1csc(NC(=O)c2cc(-c3ccncc3)nc3ccccc23)n1` gave Six1-Eya2 blk -10, gsp antag -10%, D2 ag 6.3, gsp agonist -1%[15.4 µM], D2 potentiator 10 and CtBP-E1A inh 0.
For Cc1ccc(NC(=O)CN(C)C(=O)Cc2ccc(Cl)c(Cl)c2)cc1 the results were Six1-Eya2 blk -2, gsp antag -10%, D2 ag -3.8, gsp agonist -45%[inhibitor], D2 potentiator -13 and CtBP-E1A inh 1.
`Cc1cc(C)c(S(=O)(=O)Nc2nccs2)c(C)c1` gave Six1-Eya2 blk 1, gsp antag -10%, D2 ag 5.8, gsp agonist -3%[15.4 µM], D2 potentiator -2 and CtBP-E1A inh 1.
For Nc1cc(-c2ccc(Br)cc2)nn1S(=O)(=O)c1ccccc1 the results were Six1-Eya2 blk -11, gsp antag -2%, D2 ag -4.6, gsp agonist 0%, D2 potentiator -5 and CtBP-E1A inh 4.
Screening S=C(NCc1ccco1)Nc1ccc(Cl)cc1 returned Six1-Eya2 blk 8, gsp antag 13%, D2 ag -1.1, gsp agonist -49%[inhibitor], D2 potentiator -10 and CtBP-E1A inh 13.
Screening O=C(Nc1ccc(SC(F)(F)F)cc1)c1ccccn1 returned Six1-Eya2 blk 19, gsp antag -5%, D2 ag -0.5, gsp agonist -32%[inhibitor], D2 potentiator -2 and CtBP-E1A inh 21.
`NS(=O)(=O)c1ccc(CCNC(=O)COC(=O)COc2cccc(C(F)(F)F)c2)cc1` gave Six1-Eya2 blk 4, gsp antag -3%, D2 ag -2.9, gsp agonist 6%, D2 potentiator -2 and CtBP-E1A inh -6.

Source: PubChem
